Screening results: PubChem, ICCB-Longwood Screening Facility, Harvard Medical School
AID504770: growth inhibition of E. coli YBA685, primary screen, V. cholerae RctB inhibitors; AID 504770, 2011; actives 0.27% (n = 130,000); z-score (test concentration not listed); E. coli YBA685 rctB-dependent plasmid, OD600 growth, 3 h; active compounds read low;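 active means z-score under -2 on both plates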;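 further: wells of about 30 µL received 100 nL stock; score is relative to mean and SD of the test wells; the first replicate is given; strong numbers were not always called active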
Ba CapD inh: Bacillus anthracis CapD inhibitors, primary screen, biochemical, fluorescence intensity. AID 492967, 2010. CapD gamma-glutamyltranspeptidase (Bacillus anthracis Ames Ancestor). z-score (concentration not given with the values). purified CapD enzyme, fluorescence intensity read-out; active compounds read low; some hits fall short of the stated cut. actives 0.23% (n = 140,000);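 active means z-score under -4 in either of two replicates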;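 further: stock transfer was 100 nL into about 40 µL; score is relative to mean and spread of the plate; one replicate is shown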
The depositor's hits bear a star; nt = no result given; & = joins results of further samples.

SMILES | AID504770 | Ba CapD inh
CN(C1=NC(=O)/C(=C\c2ccccc2Cl)S1)c1ccc(O)cc1 | 0.7 | -0.695
O=C(O)CCN1C(=O)/C(=C/c2ccccn2)SC1=S | 0.4 | 0.425
CCc1cc2c(=O)c(-c3nc4ccccc4n3C)c(C(C)C)oc2cc1O | -0.35 | 0.705
COc1ccc(OCCC(=O)OCc2ccccc2)cc1 | -1.7 | -0.445
Cc1ccccc1NS(=O)(=O)c1ccc(N2CCCC2=O)cc1 | -0.45 | -0.25
Fc1c(F)c(F)c(Sc2nnc(-c3cccs3)n2CC2CCCO2)c(F)c1F (configuration not stated) | -0.85 | nt
CC(C)C(=O)NCCc1nc2ccccc2[nH]1 | -1 | 0.585
c1ccc(-c2ncc(-c3ccncn3)c(-c3cccnc3)n2)nc1 | nt | -0.7

Brought forward from above: two entries, then new ones.
SMILES | AID504770 | Ba CapD inh
CC(C)C(=O)NCCc1nc2ccccc2[nH]1 | -1 | 0.585
c1ccc(-c2ncc(-c3ccncn3)c(-c3cccnc3)n2)nc1 | nt | -0.7
C=CCc1c(C)nc(-c2ccccc2)nc1NN | -0.75 | nt
Cc1c(Cl)cccc1NC(=O)c1cc2ccccc2oc1=O | 0.05 | 0.63
CC(=O)Nc1nnc(C(C)C)s1 | -0.05 | nt
CCNc1nc(OC)nc(Oc2ccc(/C=N/O)cc2)n1 | 2.1 | -1.12
CS(=O)(=O)c1ccc(CCNC(=O)c2ccccc2NC(=O)N(C2CC2)C2CCN(Cc3ccccc3)CC2)cc1 | nt | 0.55
CCOCCCNc1nc2ccccc2nc1NS(=O)(=O)c1cccc2nsnc12 | 1.45 | nt
Cc1occc1-c1nnc(SCC(=O)N(Cc2ccccc2)C(C)(C)C)n1C | -0.15 | nt
Cc1nc(N2CCN(C)CC2)sc1-c1ccccc1 | -0.55 | nt
CC1=Nc2ccccc2N=C(NC(=O)CSc2nnnn2-c2ccccc2)C1c1ccccc1 (configuration not stated) | 1.3 | 0.255
O=c1[nH]c2ccccc2n1C1CCCCC1 | 0.95 | nt
CCOc1cc(C2C(C(=O)OC)=CN(Cc3ccc(Cl)cc3)C=C2C(=O)OC)cc(Br)c1O | nt | -0.21
CCCS(=O)(=O)c1c(S(=O)(=O)CCC)c2ccc(C(N)=O)cn2c1C(=O)c1ccc(OC)cc1 | nt | -0.525
O=C(Nc1ccc(Cl)cc1)C1=Cc2ccccc2OC1 | 2.25 | -0.45
O=C(NCCN1CCOCC1)C1(c2cccs2)CCOCC1 | 0.8 | nt
Cc1c(OC(C)C)ccc2c3c(c(=O)oc12)CCC3 | 0.75 | 37.9
Cc1nn(C(=O)c2ccccc2Cl)c(C)c1N=Nc1ccc(Cl)cc1 | nt | -1.5
CCOc1ccc2sc(C=NCc3cccnc3)c(O)c2c1 | nt | -3.83
COc1ccc(CCCOC(=O)NC(C(=O)Nc2ccc3ccccc3c2)C(C)C)cc1 (configuration not stated) | nt | -0.465
Cc1cc(OCC(=O)OC(C)C)c2c3c(c(=O)oc2c1)CCCC3 | nt | 0.065
COc1ccccc1N1CCN(S(=O)(=O)c2cccc3c2C(=O)c2ccccc2C3=O)CC1 | nt | 0.285
CCCCCCCc1c(C)[nH][nH]c1=O | -0.5 | 0.01
O=C(NCCc1cccc(F)c1)OCCCCCc1ccccc1 | nt | -0.91
COc1cccc(NC(=O)c2ccc(CN3CCN(c4ccccc4)CC3)cc2)c1 | 0.5 | nt
COc1ccc(-c2nc(NCC3CCCO3)c3ccccc3n2)cc1 (configuration not stated) | 0.2 | 24.8
CCOC(=O)c1ccc(NC(=S)NCCc2ccc(OC)c(OC)c2)cc1 | nt | -0.755
O=C(O)CCC(=O)N1CCN(c2ncnc3sccc23)CC1 | nt | -1.17
CCN(CC)C(=S)SC1=CCS(=O)(=O)C1 | -0.25 | -0.19
COc1ccc(N2CCN(C(=O)c3cccnc3SCc3ccc(Br)cc3)CC2)cc1 | nt | -0.18
CCOC(=O)CSc1nncc(=O)[nH]1 | -1.5 | 0.28
c1ccc2[nH]c(CSc3nc4ccccc4o3)nc2c1 | 0.9&-0.95 | 3.69&1.27
COc1cc(C2C(C#N)=C(N)OC3=C2C(=O)CC(C)(C)C3)ccc1OCC(=O)Nc1ccccc1C (configuration not stated) | -0.4 | 0.215
Cc1ccccc1CCOC(=O)N1CCN(c2ncnc3sccc23)CC1 | nt | 1.4
OCCNC1CCCc2c1[nH]c1ccc(Br)cc21 (configuration not stated) | -1.45 | -0.01
COCCN=C1NN=C(c2ccc(C(C)(C)C)cc2)CS1 | 0.2 | nt
Nc1ccc2c(c1)COC2=O | 1.6 | 0.205
CCC(=O)Nc1ccc(C(=O)c2ccccc2)cc1 | 0.35 | -1.08
Clc1ccc(C2=CC(c3ccco3)n3ncnc3N2)cc1 (configuration not stated) | 0.15&-0.1 | 28.8
O=C(NC1CCCC1)c1cc(C(=O)c2c(Cl)cccc2Cl)c[nH]1 | nt | 2.5
CCOC(=O)C1=C(c2ccccc2)N=C2SCC(=O)N2C1c1ccc(F)cc1 (configuration not stated) | nt | -0.16
O=C(O)C1Cc2ccccc2CN1S(=O)(=O)/C=C/c1ccccc1 (configuration not stated) | -0.65 | nt

Molecules shown so far that have two or more sulfur atoms (5):
SMILES | AID504770 | Ba CapD inh
O=C(O)CCN1C(=O)/C(=C/c2ccccn2)SC1=S | 0.4 | 0.425
Fc1c(F)c(F)c(Sc2nnc(-c3cccs3)n2CC2CCCO2)c(F)c1F (configuration not stated) | -0.85 | nt
CCOCCCNc1nc2ccccc2nc1NS(=O)(=O)c1cccc2nsnc12 | 1.45 | nt
CCCS(=O)(=O)c1c(S(=O)(=O)CCC)c2ccc(C(N)=O)cn2c1C(=O)c1ccc(OC)cc1 | nt | -0.525
CCN(CC)C(=S)SC1=CCS(=O)(=O)C1 | -0.25 | -0.19

Further compounds.
SMILES | AID504770 | Ba CapD inh
CCn1c2c(c(=O)[nH]c1=O)C(c1ccccc1)C1=C(N2)c2ccccc2C1=O (configuration not stated) | -0.45 | -0.145
Nc1nnc2cc(C(=O)c3cc(F)ccc3O)cnn12 | 0.45 | nt
Nc1nc(COC(=O)/C=C/c2cc(Cl)c3c(c2)OCCO3)nc(Nc2ccccc2)n1 | 1.1 | nt
CC(C)Oc1ccc(C2CC(=O)NNC2=O)cc1 (configuration not stated) | 1.3 | -1.56
COc1ccc(-c2cc(C(F)(F)F)n3ncc(C(=O)NCCc4c[nH]c5ccccc45)c3n2)cc1OC | nt | -1.85
O=C1C=C/C(=N/N(Cc2ccccc2)c2ccccc2)O1 | -0.7 | nt
Cc1ccc(N(CC(N)=O)C2SC(=O)N(c3ccccc3)C2=O)cc1 (configuration not stated) | 1.15 | -0.71
CN1C(=O)c2ccccc2N(C)C1c1cccs1 (configuration not stated) | -0.9 | nt
CC(C)NC(=O)c1ccc(-c2ccccc2)cc1 | 0.05 | 0.19
CC(=O)Nc1ccc2c(Cn3ncc(Cl)c(Cl)c3=O)cc(=O)oc2c1 | 0 | nt
Cc1ccc2ccc(S(=O)(=O)N3CCCCC3)cc2c1 | 1.85 | -0.12
CCSc1nc(O)cc(=O)n1CC | -0.85 | -0.17
Cc1cc(NC(=O)CSc2nc3c(sc(=S)n3Cc3ccco3)c(=O)n2-c2ccc(F)cc2)no1 | nt | -0.98
Fc1ccc(C(Nc2ccccn2)c2c[nH]c3ccccc23)cc1 (configuration not stated) | -0.75 | -0.085
CCOC(=O)c1c(NC(C)=O)sc2c1CCN(C(C)C)C2 | 0.15 | 14.8
COc1ccc(N2CCN(c3nn(C)c(=O)n(C)c3=O)CC2)cc1 | -0.3 | nt
NC(=O)C1CCN(S(=O)(=O)c2ccccc2)CC1 | -0.55 | -0.315
CC(=O)Nc1ccccc1-c1nc2ccc(C(=O)N3CCC(Cc4ccccc4)CC3)cc2[nH]c1=O | -1.2 | 55.8
CCN(CC)S(=O)(=O)c1cccc(-c2nnc(SCC(=O)Nc3cc(C)on3)o2)c1 | -0.3 | nt
COc1ccc2nc(SCC(=O)Nc3cc(F)ccc3F)[nH]c2c1 | -1.15 | -0.48
Cn1c(=O)c2c(nc(N3CCN(Cc4ccccc4)CC3)n2Cc2cccc(Cl)c2)n(C)c1=O | nt | -0.195
CN(C)c1ccc(C2OC(COc3ccccc3)CN(C(=O)c3ccccc3)O2)cc1 (configuration not stated) | -0.45 | -1.31
COc1cccc(NC(=O)c2sc3ncnc(N4CCOCC4)c3c2C)c1 | nt | -0.955
CCOC(=O)c1ccc(N2N=C(C(F)(F)F)/C(=C/c3ccc(OCC)c(OCC)c3)C2=O)cc1 | -0.3 | -0.025
C1CCN(c2nc(N3CCCCC3)nc(N3CCCCC3)n2)CC1 | nt | -0.14
CCOC(=O)c1c(C)n(-c2ccccc2)c2c1cc(OC(=O)COc1ccccc1)c1ccccc12 | nt | 0.085
NNC(=O)c1cccc(C(=O)NN)n1 | -1.65 | -0.325
COc1cccc(OC)c1CNC(=O)CNC(=O)c1cnccc1C(F)(F)F | nt | -0.665
Cc1ccc(CNC(=O)c2cc3c(s2)-c2ccccc2OC3)cc1 | -0.25 | 82.3
COC(=O)C(Cc1ccccc1)NC(=O)c1cc2c(n(-c3ccccc3)c1=O)CC(C)(C)CC2=O (configuration not stated) | nt | 2.71
O=C(Nc1ccc(CSc2ccccc2)cc1)c1cccc(C(F)(F)F)c1 | nt | -0.15
CCOC(=O)c1ccc(NC(=O)c2c(NCc3ccc(C)o3)sc3c2CCCC3)cc1 | -0.75 | -0.14
O=c1cc(CSc2nc(NCc3ccc4c(c3)OCO4)c3ccccc3n2)nc2ccccn12 | nt | -0.24
N/C(CSCc1ccco1)=N\O | -0.25 | -0.075
CC(C)(C)c1ccc(-c2nnc3sc(-c4ccccn4)nn23)cc1 | 2.4 | -0.275
O=c1oc2c(Cl)cc(Cl)cc2cc1-c1nc2ccccc2[nH]1 | nt | -0.17
Brc1cc2c(cc1/C=N/c1c(-c3ccco3)nc3ccccn13)OCO2 | 0 | -1.75
OCc1c(Cl)nc2sccn12 | 0.15 | -0.33
COc1cc2c(C(=O)O)c(C)oc2cc1Br | 1.15 | 0.64
Cc1nc2sc(C(c3ccc(F)cc3)N3CCC(O)CC3)c(O)n2n1 (configuration not stated) | -0.55 | -0.89
O=C(COc1ccc(Br)cc1)N(CCO)CCO | -0.2 | 0.01
Cc1nn(-c2ccccc2)c(C)c1CS(=O)(=O)c1ccccc1 | -0.1 | 0.055
Cn1c(=O)c2c(ncn2CC(=O)NCc2ccccc2)n(C)c1=O | nt | 0.205
O=C(NCC(=O)N1CCN(C2CCS(=O)(=O)C2)CC1)c1sc2ccccc2c1Cl (configuration not stated) | -0.15 | nt
CCN1CCN(C(c2cccs2)C(C)NC(=O)c2ccncc2)CC1 (configuration not stated) | -1.35 | 0.435
O=S(=O)(c1ccccc1)N1N=C(c2ccccc2)CC1c1ccco1 (configuration not stated) | -0.2 | -0.29
Cc1ccc(N2C(=O)CC(N3CC4(C)CC3CC(C)(C)C4)C2=O)cc1 (configuration not stated) | -0.65 | nt
COc1ccc(C2C=C(c3ccc(F)cc3)NC(=S)N2)cc1OC (configuration not stated) | -0.35 | -0.045
COC(=O)c1ccc(CSc2nc3c(cnn3-c3ccc(Cl)cc3)c(=O)[nH]2)o1 | 0.35 | 0.05
COc1cc(OC)nc(C(Sc2ccc(NC(=O)c3cccc(C(F)(F)F)c3)cc2)c2ccccc2)n1 (configuration not stated) | nt | -0.64
OC(COc1ccc(Cl)cc1)(c1nnc(-c2ccccc2)o1)c1nnc(-c2ccccc2)o1 | 0.25 | nt
CC(=O)C1=NN(c2ccc([N+](=O)[O-])cc2)C2(S1)c1ccccc1C(c1ccc(Cl)cc1)=NN2c1ccccc1 (configuration not stated) | nt | -0.185
O=C(Nc1ccc(-c2nnn(CC(=O)N3CCN(C(=O)c4ccco4)CC3)n2)cc1)c1ccccc1F | 0.5 | nt
COc1cc2c(cc1OC)C(C)N(S(=O)(=O)c1ccc(C)cc1)CC2 (configuration not stated) | 0.7 | 0.28
CC1CCC/C(=C\c2ccc3c(c2)OCO3)C1=O (configuration not stated) | -0.1 | 0.105
O=C(Cc1ccccc1)Nc1ccc(O)c(-c2nc3ccccc3s2)c1 | -0.2 | 0.98

The results go on:
SMILES | AID504770 | Ba CapD inh
CCc1ccc(/C=C2/C(=O)NC(=O)N2C(C)=O)cc1 | nt | -3.12
CN(c1ccc(C(=O)NCCC2=CCCCC2)cc1)S(C)(=O)=O | 0.4 | 0.24
O=C(O)c1nccnc1-c1nc2ccccc2s1 | -0.5 | nt
COc1cccc(-n2c(=O)c3cc(OC)c(OC)cc3n(CC(N)=O)c2=O)c1 | 0.4 | 6.64
CCOc1ccccc1-c1noc(-c2ccncc2)n1 | 2.2 | -2.48
Cc1ccc(C)n1C(Cc1cnc[nH]1)C(=O)O (configuration not stated) | 0 | nt
COc1ccc([N+](=O)[O-])cc1N1C(=O)C2C3c4ccccc4C(c4ccccc43)C2C1=O (configuration not stated) | nt | -0.245
O=C(O)CP(=S)(c1ccccc1)c1ccccc1 | -0.65 | 23.8
O=C(CNc1ccc(Cl)cc1F)N1CCCc2ccccc21 | 0.05 | -0.055
CSc1nc2ccc(NS(=O)(=O)c3ccccc3C(F)(F)F)cc2s1 | -0.75 | -0.01
Cc1nc(Nc2ccc(S(N)(=O)=O)cc2)nc(Nc2ccc(S(N)(=O)=O)cc2)c1Br | nt | -0.56
Cc1cc(C)nc(SCc2nc3scc(C)n3c2Br)n1 | -1.7 | nt
CC(=O)Nc1ccc([N+](=O)[O-])cc1C | nt | -1.25
CCn1c(SCC(=O)Nc2ccc(OC)cc2)nc2ccsc2c1=O | -0.1 | 0.16

Not all compounds are listed; rates above refer to the full screens.
